Screens: PubChem BioAssay, Center for Chemical Genomics, University of Michigan
HIV TAR-Tat = HIV-1 TAR-Tat binding disruption | HIV-1 TAR RNA, Tat peptide displacement FRET; active compounds read high | z-score (concentration not given with the values) | 0.6% of 100,000 active | AID 1259389;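 also: score is relative to mean and SD of negative controls; some compounds called inactive have numbers as strong as hits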
CDC25B-CDK2 inh = human CDC25B-CDK2/CyclinA binding inhibition; AID 1259370; 0.72% of 94,000 active; z-score (concentration not given with the values); HTRF CDC25B-CDK2/CyclinA binding, anti-His/anti-Flag; active compounds read high; P30305+P24941;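 also: score is relative to mean and SD of negative controls; strong numbers were not always called active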
Numbers without * were called inactive; nt = not tested or not shown.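 The calls were made as follows: active = z-score from 3 up in half or more of its runs; inactive = the rest.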

SMILES	HIV TAR-Tat	CDC25B-CDK2 inh
O=C(Cn1cnc(S(=O)(=O)N2CCCC2)c1)Nc1ccc(Cl)cn1	0.15	nt
CC(C)Oc1ccccc1C1CC(=O)Nc2nc(SCc3ccc(F)cc3)[nH]c(=O)c21 (stereo not drawn)	2.1	-2.2
CC1CCC2C(=O)N(c3ccc(C(=O)O)cc3)C(=O)C2C1 (stereo not drawn)	3	-0.61
Cc1cc(Nc2cccc(F)c2)n2nc(-c3ccco3)nc2n1	-0.44	nt
Cc1cc(C)c(S(=O)(=O)c2nnn3c2nc(NCc2ccco2)c2ccccc23)c(C)c1	1.3	-1.2
Cc1cc(C)cc(OC(=O)c2snnc2C)c1	1.4	0.52
Cc1cccc(-c2nnc(SCc3cc(=O)c4ccccc4[nH]3)n2C)c1	-0.2	nt
COc1cc2c(cc1OC)[C@@H]1C(=O)c3ccc4c(c3O[C@@H]1CO2)CCC(C)(C)O4	2.8	nt
COc1cccc(/C=C/c2nc(C#N)c(NCCCn3ccnc3)o2)c1	0.98	0.22
COCCNc1cc(C)nc2c(-c3ccc(C)cc3)c(C(F)(F)F)nn12	0.45	-0.6
CC(C)CN1CCc2nc(N3CCN(c4ncccn4)CC3)ncc2C1	-0.03	nt
O=C(Cc1cc(F)cc(F)c1)NNC(=O)c1ccc(Cl)cc1	nt	-1.5
S=c1nc[nH]c2nc(N3CCSCC3)sc12	2.2	1.5
CCCN1C(=O)C2(c3ccccc31)c1c(oc3cc(C)c(C)cc3c1=O)C(=O)N2CCCOC (stereo not drawn)	1.6	-0.53
CCNc1nc(NCCOC)nc2c1cnn2C	2.1	nt
Cc1ccc(-c2noc(-c3nnn(-c4ccc(Br)cc4)c3N)n2)cc1	1.5	nt
c1ccc(CNc2nc3ccccc3c3nc(-c4cccnc4)nn23)cc1	nt	-1.2
O=C1CCCN1CCCn1cnc2c([nH]c3ccccc32)c1=O	2.2	-1.3
COc1ccccc1C(=O)c1c(N)c(-c2nc(-c3ccccc3OC)cs2)c2ccccn12	2.6	0.81
O=C(CSc1nc2ncccc2[nH]1)NC1CCCC1	1.7	-0.63
Cc1ncc(-c2ccc(S(=O)(=O)NCC3CCCO3)cc2)o1 (stereo not drawn)	0.46	nt
O=C(NCc1cccs1)C(=O)NCC1OCCCN1S(=O)(=O)c1ccc2c(c1)OCCO2 (stereo not drawn)	nt	-2.3
O=C(N=Nc1c(O)[nH]c2ccc(Br)cc12)c1ccncc1	nt	-1.9
Cc1cccc(C)c1-n1c(C2CC3CCC2O3)n[nH]c1=S (stereo not drawn)	nt	-1.4
CCc1ccc(Nc2ncnc3onc(-c4ccc(F)cc4)c23)cc1	-1.2	nt

The listing continues.
SMILES	HIV TAR-Tat	CDC25B-CDK2 inh
Cc1ccc(C)c(N2C(=O)C3C(C2=O)N2CCCN2C3c2ccccc2)c1 (stereo not drawn)	nt	-1.3
Cc1cccn2c(=O)c3cc(C(=O)Nc4cccc(F)c4)sc3nc12	nt	0.44
O=C1c2[nH]nc(-c3ccccc3O)c2C(c2ccc(F)cc2)N1CCCO (stereo not drawn)	-0.54	-1.5
CCCN1CCN(C(=O)CCC(=O)N2CC(C)Oc3ccccc32)CC1 (stereo not drawn)	-0.82	-0.67
Cc1nc2sc3c(NCc4ccco4)ncnc3c2c2c1COC(C)(C)C2	-2	0.35
N#Cc1c(NC(=O)c2csnn2)sc2c1CCCC2	0.9	-3.1
CCOC(=O)c1[nH]c(C)c(C(=O)CSc2nc3ccccc3[nH]2)c1C	-0.08	-1.8
O=C(Nc1c2c(nn1-c1ccc(Cl)cc1)CSC2)c1ccc(N2C(=O)CCC2=O)cc1	nt	-0.61
Clc1ccccc1Cc1nn[nH]n1	-1.2	-0.05
Nc1ccc2oc(-c3ccccc3)nc2c1	1.5	-1.1
COC(=O)c1c(NC(=O)Cc2coc3ccc(C(C)C)cc23)sc2c1CCC2	0.17	2
Cc1ccc2c(c1)OC(=O)CC2c1ccccc1 (stereo not drawn)	2.2	0.02
COc1cc(NC2=NS(=O)(=O)C(c3ccc(C(C)C)cc3)=C2C)cc(OC)c1	0.77	-4.5
CCC(=O)N1c2ccccc2CC1C(=O)NC1CCCCC1 (stereo not drawn)	1.3	nt
O=C(/C(=N/N=C/c1ccccn1)c1ccccc1)c1ccccc1	nt	-0.25
Cc1nc2ccccn2c(=O)c1Cc1nnc(SCC(=O)Nc2ccc(F)cc2)n1C	0.54	-0.8
COc1ccc(OC)c(NC(=O)c2cc3c(s2)-c2ccsc2CC3)c1	-1.6	nt
O=C(O)C1Sc2[nH]c(=O)sc2C2c3ccccc3OC(=O)C12 (stereo not drawn)	nt	-1.8
O=S1(=O)C[C@H](N2CCc3ccccc3C2)[C@@H](S(=O)(=O)c2ccccc2)C1	-0.84	-1.3
CCN1C(=O)CC2C(=O)N(c3ccc(F)cc3)C(=S)N2N=C1c1ccc(Br)cc1 (stereo not drawn)	nt	-11
Cc1ccc(S(=O)(=O)Nc2ccccc2SCc2cc(=O)n3c(C)csc3n2)cc1	1.3	nt
Cc1cc(C2CCCN2C(=O)Cn2cc(Cl)cn2)no1 (stereo not drawn)	1.7	nt
Cc1ccc2[nH]c(CSc3nnc(COc4ccccc4C)n3C)cc(=O)c2c1	-1.1	nt
Cc1csc2nc(CNS(=O)(=O)c3ccccc3)cn12	0.96	2.3
COc1ccc(N2CC(c3nc4ccccc4n3CCCN(C)C)CC2=O)cc1 (stereo not drawn)	0.06	-1.2

22 of the compounds above, in markdown:
| Molecule | HIV TAR-Tat | CDC25B-CDK2 inh |
| --- | --- | --- |
| Cc1cccn2c(=O)c3cc(C(=O)Nc4cccc(F)c4)sc3nc12 | nt | 0.44 |
| O=C1c2[nH]nc(-c3ccccc3O)c2C(c2ccc(F)cc2)N1CCCO (stereo not drawn) | -0.54 | -1.5 |
| CCCN1CCN(C(=O)CCC(=O)N2CC(C)Oc3ccccc32)CC1 (stereo not drawn) | -0.82 | -0.67 |
| Cc1nc2sc3c(NCc4ccco4)ncnc3c2c2c1COC(C)(C)C2 | -2 | 0.35 |
| N#Cc1c(NC(=O)c2csnn2)sc2c1CCCC2 | 0.9 | -3.1 |
| CCOC(=O)c1[nH]c(C)c(C(=O)CSc2nc3ccccc3[nH]2)c1C | -0.08 | -1.8 |
| O=C(Nc1c2c(nn1-c1ccc(Cl)cc1)CSC2)c1ccc(N2C(=O)CCC2=O)cc1 | nt | -0.61 |
| Clc1ccccc1Cc1nn[nH]n1 | -1.2 | -0.05 |
| Nc1ccc2oc(-c3ccccc3)nc2c1 | 1.5 | -1.1 |
| COC(=O)c1c(NC(=O)Cc2coc3ccc(C(C)C)cc23)sc2c1CCC2 | 0.17 | 2 |
| Cc1ccc2c(c1)OC(=O)CC2c1ccccc1 (stereo not drawn) | 2.2 | 0.02 |
| COc1cc(NC2=NS(=O)(=O)C(c3ccc(C(C)C)cc3)=C2C)cc(OC)c1 | 0.77 | -4.5 |
| CCC(=O)N1c2ccccc2CC1C(=O)NC1CCCCC1 (stereo not drawn) | 1.3 | nt |
| O=C(/C(=N/N=C/c1ccccn1)c1ccccc1)c1ccccc1 | nt | -0.25 |
| Cc1nc2ccccn2c(=O)c1Cc1nnc(SCC(=O)Nc2ccc(F)cc2)n1C | 0.54 | -0.8 |
| COc1ccc(OC)c(NC(=O)c2cc3c(s2)-c2ccsc2CC3)c1 | -1.6 | nt |
| O=C(O)C1Sc2[nH]c(=O)sc2C2c3ccccc3OC(=O)C12 (stereo not drawn) | nt | -1.8 |
| O=S1(=O)C[C@H](N2CCc3ccccc3C2)[C@@H](S(=O)(=O)c2ccccc2)C1 | -0.84 | -1.3 |
| CCN1C(=O)CC2C(=O)N(c3ccc(F)cc3)C(=S)N2N=C1c1ccc(Br)cc1 (stereo not drawn) | nt | -11 |
| Cc1ccc(S(=O)(=O)Nc2ccccc2SCc2cc(=O)n3c(C)csc3n2)cc1 | 1.3 | nt |
| Cc1cc(C2CCCN2C(=O)Cn2cc(Cl)cn2)no1 (stereo not drawn) | 1.7 | nt |
| Cc1ccc2[nH]c(CSc3nnc(COc4ccccc4C)n3C)cc(=O)c2c1 | -1.1 | nt |

Further entries
SMILES	HIV TAR-Tat	CDC25B-CDK2 inh
CC1CC(C)CN(S(=O)(=O)c2ccc3c(c2)C(C)(C)C(=O)N3C)C1 (stereo not drawn)	1.9	nt
COC(=O)[C@@H](NC(=O)c1cc(C)on1)C(C)C	nt	-1.7
Cc1ccc(S(=O)(=O)N/C(C#N)=C/[P+](c2ccccc2)(c2ccccc2)c2ccccc2)cc1	nt	-2.6
O=S1(=O)CC(c2ccccc2)CS(=O)(=O)C1CCN1CCOCC1 (stereo not drawn)	nt	-1.8
O=C(c1cnc2ccccc2n1)N1CCN(c2cccc(Cl)c2)CC1	nt	-2.4
CSC(=NC(C)C)NC#N	nt	-2.6
C=CCNC(=O)Cn1nc(C)c2nn(-c3ccc(Cl)cc3)c(-n3cccc3)c2c1=O	0.23	nt
O=C(Nc1ccc2c(c1)OCCO2)C1CCN(S(=O)(=O)c2ccc3[nH]c(=O)ccc3c2)CC1	1.2	nt
C=CCN(CC=C)C(=O)C(C)n1nc(-c2ccc3c(c2)OCCO3)ccc1=O (stereo not drawn)	0.96	0.62
O=C(O)c1nc2cc(Cl)c(Cl)cc2[nH]c1=O	-0.7	nt
Cc1ccc2nc3c(cc2c1)CCN3C(=O)C(C)C	-0.77	0.08
Cc1ccc(S(=O)(=O)n2nc(-c3cccnc3)nc2NCc2ccc(F)cc2)cc1	-1	0.65
CCC(C(=O)N1CCC(C(N)=O)CC1)n1nc(C)n2c(cc3occc32)c1=O (stereo not drawn)	2.4	1.4
CC(C)OC(=O)c1ccc(CSc2nc3c(c(=O)[nH]2)CCCC3)cc1	2.7	-2.4
NC(=O)CCSCCC(N)=O	nt	-0.46
Cc1cc(Nc2ccccc2F)n2nc(-c3ccccc3)nc2n1	0.04	0.06
CCOc1ccc(-c2noc(C3CCCN(S(=O)(=O)c4ccc(C(C)C)cc4)C3)n2)cc1 (stereo not drawn)	1.4	nt
O=C(c1ccccc1)c1oc2ccccc2c1NC(=O)c1nn(-c2ccc(Cl)cc2)ccc1=O	0.22	1.4

4 records picked at random from the list so far, as already listed:
SMILES	HIV TAR-Tat	CDC25B-CDK2 inh
CC1CC(C)CN(S(=O)(=O)c2ccc3c(c2)C(C)(C)C(=O)N3C)C1 (stereo not drawn)	1.9	nt
Cc1ccc(S(=O)(=O)N/C(C#N)=C/[P+](c2ccccc2)(c2ccccc2)c2ccccc2)cc1	nt	-2.6
CCC(C(=O)N1CCC(C(N)=O)CC1)n1nc(C)n2c(cc3occc32)c1=O (stereo not drawn)	2.4	1.4
C=CCN(CC=C)C(=O)C(C)n1nc(-c2ccc3c(c2)OCCO3)ccc1=O (stereo not drawn)	0.96	0.62
